Screening results (PubChem)
D2 PAM: Beta-Arrestin HTS for Positive Allosteric Modulators of the Human D2 Dopamine Receptor: Potentiators | D(2) dopamine receptor (Homo sapiens), P14416 | DiscoveRx D2 beta-arrestin cells, luminescence, 90 min; 100% = 57 uM dopamine signal | potentiation, % (concentration not given with the values) | 0.23% of 360,000 active | AID 624464, 2012; active = potentiation of 50% or more; inconclusive = 30% to 50%; inactive = 30% or less;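 further: compound concentration not given in the record; tested on top of an EC20 dose of dopamine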
Target sequence (P14416 whole entry, looked up): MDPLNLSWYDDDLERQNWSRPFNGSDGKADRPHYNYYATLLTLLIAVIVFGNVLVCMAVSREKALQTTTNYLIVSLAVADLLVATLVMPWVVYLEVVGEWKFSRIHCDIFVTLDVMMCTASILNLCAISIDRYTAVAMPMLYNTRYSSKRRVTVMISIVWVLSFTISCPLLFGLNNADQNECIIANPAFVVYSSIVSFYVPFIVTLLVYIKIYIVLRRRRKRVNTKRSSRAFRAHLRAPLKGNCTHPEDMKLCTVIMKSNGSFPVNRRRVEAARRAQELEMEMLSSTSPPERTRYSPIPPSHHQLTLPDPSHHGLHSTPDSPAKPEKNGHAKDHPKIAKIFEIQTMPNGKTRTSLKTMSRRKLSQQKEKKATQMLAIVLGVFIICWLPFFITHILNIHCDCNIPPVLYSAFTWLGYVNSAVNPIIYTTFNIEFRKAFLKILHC
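PathHunter D2 cells, attached overnight at 37 deg C, received compound in DMSO plus dopamine at EC20 (50 nM final) for 90 min at 37 deg C. Beta-arrestin recruitment was read as luminescence after 1 h with detection reagent at ambient temperature.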
CtBP-E1A blk: qHTS Assay for Inhibitors of the CtBP/E1A Interaction. CtBP / adenovirus E1A interaction (AlphaScreen). AlphaScreen GST-E1A/His-CtBP binding, 1536-well; active compounds read low; control for the full effect not named in the record. activity change, % (concentration not given with the values). 0.49% of 340,000 active. AID 651724, 2012; in the data active means activity change below about -65%; inconclusive means about -30% to -65%; inactive means above about -30%; further: on the % scale 0 is the no-effect control and ±100 the full control effect
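In 5 uL wells, 23 nL compound meets equimolar GST-E1A and His-CtBP (5X stock 125 nM each) for 2 h, 37 °C. Beads (5X, 50 ug/mL) then 1 h, 37 °C, dark.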
D2 ag: Beta-Arrestin HTS for Positive Allosteric Modulators of the Human D2 Dopamine Receptor: Agonists; D(2) dopamine receptor (Homo sapiens), P14416; DiscoveRx PathHunter D2 beta-arrestin, luminescence, 90 min; 100% = 57 uM dopamine signal; activation, % (concentration not given with the values); 0.084% of 360,000 active; AID 624465, 2012; in the data active = activation above about 40%; inconclusive = about 15% to 40%; inactive = below about 15%; further: compound concentration not given in the record; the text of the record calls up to 30% inactive
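Agonist mode: compounds alone added to overnight-plated D2 PathHunter cells for 90 min at 37 C, with 57 uM final dopamine (EC100) defining full response. Beta-arrestin recruitment detected by chemiluminescent reagent, read after 1 h at ambient temperature.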
TRPV1 PAM: HTS Assay for Compounds that Act as Potentiators of the Vanilloid Receptor 1 | Transient receptor potential cation channel subfamily V member 1 (Homo sapiens), Q8NER1 | TRPV1-expressing cells, Fluo-8 calcium influx, capsaicin EC20 potentiation; host cell line not named in the record; control for the full effect not named in the record | potentiation, % at 8.33 µM | 0.02% of 320,000 active; active means potentiation above 80%; inconclusive means 30% to 80%; inactive means below 30%; further: 0% is about no effect
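Fluo-8 calcium influx in TRPV1-expressing cells, kinetic read (ex 480/em 520 nm). Compound added and read 3 min for agonist activity, followed by capsaicin at EC20 final and 2 min further read for enhancement.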
Sfp inh: qHTS Assay for Inhibitors of Bacillus subtilis Sfp phosphopantetheinyl transferase (PPTase); Biochemical Sfp PPTase activity, qHTS; Potency, µM, without a hit: max response, negative = inhibition, actives largely listed as inhibitors; 3.5% of 310,000 active; active means well fitted inhibition curve with a large enough effect; inconclusive means small, poorly fitted or top-dose-only effect, or another doubt; inactive means no such curve, though single readings can be large or run the other way;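 further: the enzyme is Sfp with the accession as filed and its product quenches rhodamine fluorescence; potency means the concentration at half of the fitted maximal effect; 0% = enzyme reaction without inhibitor and -100% = no enzyme wells; top concentration of the series not given in the record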
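With Hepes-Na pH 7.6 buffer containing 10 mM MgCl2, Sfp (15 nM) modified BHQ-2-YbbR (12.5 uM) using rhodamine-CoA (5 uM). Two reads 30 minutes apart at 525/598 nm yielded each well's rate.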
PINK1 modulator: A Quantitative High throughput Screen to Identify Chemical Modulators of PINK1 Expression. Potency, µM (titrated, usually from 76.6 µM), for inactives: at the highest dose activation (PINK1 increase), most hits filed as activators. PINK1 immunofluorescence, high-content cytometry, 24 h. 0.2% of 410,000 active; active = well fitted activation curve with a large enough effect; inconclusive = small, poorly fitted or top-dose-only effect; inactive = flat fitted curve, though single readings scatter; cell line not stated here;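 further: potency means the concentration at half of the fitted maximal effect; % of control where 0% means no effect; nearly all actives have a fitted effect of over 65% in size; a mitochondrial uncoupler was the plate control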
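Stable cell line, 250 cells/well, 12 h attachment; compounds pinned at 5 concentrations, 24 h; CCCP control. Fixed with nuclear dye, primary antibodies 12 h at 10 degrees C, secondary plus cell stain; laser-scanning cytometer read.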
Six1-Eya2 blk: qHTS Assay for Inhibitors of the Six1/Eya2 Interaction. Homeobox protein SIX1 (Homo sapiens) + Protein phosphatase EYA2 (Homo sapiens), …. AlphaScreen GST-Six1/His-Eya2 binding, biochemical; active compounds read low; control for the full effect not named in the record. activity change, % (concentration not given with the values). 0.56% of 360,000 active. AID 651725, 2012; in the data active = activity change below about -65%; inconclusive = about -30% to -65%; inactive = above about -30%; further: on the % scale 0 is the no-effect control and ±100 the full control effect
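GST-Six1 + His-Eya2 (5X stock: 250/500 nM); Tris pH 8.0, 300 mM NaCl, 0.05% BSA, 0.02% Tween 20; GSH donor/Ni acceptor beads; 1 h 37 °C dark; AlphaScreen readout.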
Starred values were filed as active, the others as inactive; ? = inconclusive; . = no result given; [ ] = remark or other dose. Rows were taken by chance, and some 3.7% of all compounds hit somewhere here.

SMILES | D2 PAM | CtBP-E1A blk | D2 ag | TRPV1 PAM | Sfp inh | PINK1 modulator | Six1-Eya2 blk
Cc1ccnc(NC(=O)CNC(=O)C23CC4CC(CC(C4)C2)C3)c1 | 3.2 | -1.2 | -6.9 | 19.3 | . | -0.4% | -1.2
CCN(CC)C(=O)Cn1cc([N+](=O)[O-])cc1[N+](=O)[O-] | -1.1 | -0.3 | -0.6 | . | . | -1.0% | -1.6
Cc1ccc(OCC(=O)Nc2ccccc2[N+](=O)[O-])c(Br)c1 | 4.6 | -19.4 | -2.0 | 7.3 | 5.3% | 7.1% | -29.4
CC1=C(C(N)=O)C(c2cccc(O)c2)n2nc(CCCO)nc2N1 (stereo not given) | -0.7 | 6.5 | 2.2 | . | -3.2% | 1.0% | 6.5
COc1cccc(-c2nc3ccccc3c(=O)n2NC(=O)c2cccnc2Cl)c1 | -0.2 | . | 1.6 | 0.2 | 9.8% | 2.6% | -1.5
COc1ccccc1C1N(c2ccc(F)cc2)C(=O)C2CCCN21 (stereo not given) | 7.8 | 9.3 | -4.5 | -4.2 | 8.6% | 0.2% | 6.8
CC(C)Cc1nc2oc3c(NCCCN4CCOCC4)ncnc3c2c2c1CCC2 | 13.5 | 3.0 | -0.7 | -0.4 | 24.2% | 0.8%[38.3 µM] | -1.6
O=C(C1CCCCN1S(=O)(=O)c1ccccc1)N1CCN(Cc2ccccc2)CC1 (stereo not given) | -15.3 | 6.3 | -4.8 | 4.3 | 22.1% | 1.9%[38.3 µM] | -2.0
CCn1c(SCC(=O)c2ccccc2)nnc1-c1ccoc1C | -28.1 | -1.0 | -0.8 | -0.4 | 2.3% | 1.7% | -1.8
O=C(CCCCCn1nnc2ccccc2c1=O)N[C@H](C(=O)O)c1ccccc1 | 0.3 | 8.1 | -0.7 | 3.0 | 2.5% | -1.3% | 12.4
Cc1ccc(NC(=O)CCC(=O)Nc2nnc(C3CCCCC3)s2)cc1 | 1.0 | 0.0 | -0.8 | -16.0 | ? | 1.3% | 7.7
COCCN1CN=C(Nc2nc3ccccc3s2)NC1 | -1.0 | 4.2 | -1.0 | -6.5 | 8.1% | 1.9% | 8.7
O=C(NC1CCN(C(=O)Nc2cccc(F)c2)CC1)c1ccco1 | -9.2 | -11.9 | -4.9 | 3.1 | -5.9% | 0.9% | -5.7
CCOC(=O)CSC1=C(C#N)C(c2ccc3c(c2)OCO3)CC(=O)N1 (stereo not given) | -7.4 | -2.5 | -3.2 | -0.4 | -5.6% | 9.4% | -5.6
COc1ccc2c(c1)C(=NNC(=O)c1ccccn1)c1cc(OC)ccc1-2 | 2.6 | -5.7 | -1.6 | 0.4 | ? | 2.0% | -5.4
Cc1ccc2nc(/C(C#N)=C\c3cc(C)n(-c4cccc([N+](=O)[O-])c4)c3C)[nH]c2c1 | -4.3 | -19.2 | -1.4 | -7.7 | 7.0% | ? | -27.1
COc1ccccc1NC(=O)COC(=O)C1CC2C=CC1C2 (stereo not given) | 0.1 | 1.8 | -5.6 | -13.1 | 3.9% | 3.2% | 5.3
CC(C)CNc1ncnc2c1ncn2[C@H]1CN(Cc2ccc(Cl)cc2)C[C@@H](CO)O1 | -0.2 | -12.2 | 1.2 | . | . | 2.5% | -2.2
O=C(c1ccc(C(F)(F)F)cc1)N1CCC(=O)N([C@H](COCc2ccccc2)Cc2ccccc2)CC1 | . | -9.4 | . | . | . | -1.1% | -6.1
CCN(Cc1ccccc1)C(=O)c1ccc(CS(=O)c2ccccc2C)o1 (stereo not given) | -2.0 | -0.4 | -2.5 | 6.0 | 7.9% | 6.0% | 0.0
CCSc1nnc(NC(=O)c2ccc3nc[nH]c3c2)s1 | 7.3 | 0.2 | -1.7 | . | . | 0.5% | -13.7
Cn1c(NCc2cccnc2)nc2cc(-c3ccc(F)cc3)sc2c1=O | -9.6 | 3.7 | 2.9 | . | . | 2.6% | 6.0
CCN(CC)CC(=O)NC1CC(C)(C)Cc2c1cnn2-c1ccc(F)cc1 (stereo not given) | -3.1 | 8.5 | -3.5 | -2.8 | 11.6% | 9.2% | -0.5
COc1ccc(C(CC(=O)NCC(OC)OC)NS(=O)(=O)c2ccc(Cl)cc2)cc1 (stereo not given) | -0.6 | 0.5 | -1.6 | 3.1 | 12.2% | -0.2% | -3.2
COc1ccc(NC(=O)COc2ccc(N(C)S(=O)(=O)c3ccc(C)cc3)cc2)cc1 | -7.7 | -8.5 | -2.2 | 9.0 | 12.9% | -0.7% | 7.5

Another view of five compounds above:
Order of results – D2 PAM | CtBP-E1A blk | D2 ag | TRPV1 PAM | Sfp inh | PINK1 modulator | Six1-Eya2 blk
Cc1ccc2nc(/C(C#N)=C\c3cc(C)n(-c4cccc([N+](=O)[O-])c4)c3C)[nH]c2c1
→ -4.3 | -19.2 | -1.4 | -7.7 | 7.0% | ? | -27.1
O=C(NC1CCN(C(=O)Nc2cccc(F)c2)CC1)c1ccco1
→ -9.2 | -11.9 | -4.9 | 3.1 | -5.9% | 0.9% | -5.7
COc1ccccc1C1N(c2ccc(F)cc2)C(=O)C2CCCN21 (stereo not given)
→ 7.8 | 9.3 | -4.5 | -4.2 | 8.6% | 0.2% | 6.8
CC(C)CNc1ncnc2c1ncn2[C@H]1CN(Cc2ccc(Cl)cc2)C[C@@H](CO)O1
→ -0.2 | -12.2 | 1.2 | . | . | 2.5% | -2.2
Cc1ccc(OCC(=O)Nc2ccccc2[N+](=O)[O-])c(Br)c1
→ 4.6 | -19.4 | -2.0 | 7.3 | 5.3% | 7.1% | -29.4

Additional records follow.
SMILES | D2 PAM | CtBP-E1A blk | D2 ag | TRPV1 PAM | Sfp inh | PINK1 modulator | Six1-Eya2 blk
COc1cc(OC)cc(C(=O)NC2CCCN(Cc3ccc(Cl)cc3)C2)c1 (stereo not given) | -72.8 | . | -0.1 | -5.9 | ? | 3.8% | -2.0
O=C(NC1CC2CCCC(C1)N2Cc1ccco1)NC12CC3CC(CC(C3)C1)C2 (stereo not given) | -14.8 | -2.8 | -1.5 | 13.0 | -5.6% | -2.5% | -0.5
CCC(C)c1ccccc1N1CC(C(=O)Nc2ccccc2N2CCCC2)CC1=O (stereo not given) | -4.7 | 2.2 | -7.0 | -1.5 | 0.6% | 3.5% | -4.5
O=C(CN1CCN(c2ncccn2)CC1)N1CCCC1 | 4.0 | -13.2 | 3.1 | 7.4 | ? | 0.6% | 10.5
Cc1nc2nc(C)c(NS(=O)(=O)c3ccc(Cl)cc3)c(=O)n2[nH]1 | -9.2 | 2.1 | -2.1 | 30.0 | 25.2% | -0.8% | 6.0
COc1cc(NC(=O)c2ccc3c(c2)OCO3)ccc1NC(=O)C(C)C | -5.8 | 5.0 | -4.5 | 2.1 | 10.8% | 1.1% | -10.1
O=C1c2ccccc2C(=O)N1CN(C(=O)COc1ccc(Cl)cc1Cl)c1cccc(F)c1 | 3.2 | 0.8 | -3.4 | 3.8 | -0.2% | 7.1% | 4.0
COc1ccccc1N1CCN(CC(O)COc2ccc3c(c2)CCC3)CC1 (stereo not given) | -33.6 | -22.1 | 1.6 | 2.3 | -1.6% | 1.9% | -17.8
CN(CC(=O)NCc1cccs1)S(=O)(=O)c1cccc2nsnc12 | -6.3 | 0.8 | -2.1 | 3.2 | -0.1% | -2.1% | 0.1
Cc1ccc(C(=O)Cn2nnc3ccccc32)cc1 | 0.9 | 2.0 | -0.6 | -7.0 | -7.4% | -3.0% | -3.2
NC(=S)N/N=C1\c2ccccc2-c2c(C(=O)O)cccc21 | -19.2 | . | -0.1 | 9.1 | 79.4µM* | 0.1% | -6.4
CN(C)CC(C)(C)CNS(=O)(=O)c1ccc(Cl)s1 | -5.1 | 0.9 | -4.3 | 11.5 | 20.3% | 0.0% | -2.2
COc1ccc(CNC(=O)Cn2nc(C(F)(F)F)c3c2CCC3)cc1 | -6.6 | 3.9 | -2.0 | -2.0 | -12.7% | . | -0.5
CCSc1ncnc2c(C#N)c3n(c12)CCCCC3 | -4.8 | -0.1 | -2.2 | -12.1 | -6.1% | -1.2% | 6.0
Cc1ccccc1-c1ccccc1CN1[C@@H](C(C)C)COCCS1(=O)=O | . | 0.0 | 1.5 | . | . | 5.2% | 20.2
CC(C)C(=O)NNc1ccccc1 | 5.9 | -11.5 | -2.3 | -3.1 | -1.8% | -2.6% | 7.4
COc1cc(NS(=O)(=O)c2ccc(NC(=O)COc3ccc(C)cc3)cc2)nc(OC)n1 | -3.9 | -4.0 | -2.4 | 9.6 | 0.1% | 1.3% | -9.8
COC(=O)C1=C(C)NC(=O)CC1c1cccc(OC)c1OC (stereo not given) | 6.1 | 2.0 | -1.4 | 5.7 | 7.2% | 1.6%[38.3 µM] | 5.4
COc1ccc(-n2nc(C(=O)NCC(=O)N3CCOCC3)c3ccccc3c2=O)cc1Cl | 0.1 | 3.3 | 10.0 | -21.6 | 26.4% | 1.1% | 3.9
Cc1c(C(=O)O)oc2ccc3c(c12)C(O)CC(C)(C)O3 (stereo not given) | -7.9 | 2.4 | -4.0 | -3.1 | 14.3% | 0.9% | 0.7
Cc1nc(-c2ccc(-n3nncc3-c3ccco3)cc2)cs1 | -2.9 | -4.2 | -0.4 | 8.5 | -11.0% | -1.4% | -4.5
CCOc1ccc(OCCCC(=O)NC2=NCCS2)cc1 | -3.4 | -0.8 | 0.1 | 7.0 | 21.2% | -1.4% | -0.7
CCOC(=O)C(Oc1ccc(=O)n(-c2ccccc2)n1)C(C)=O (stereo not given) | 0.1 | 20.4 | -0.8 | -5.8 | 6.7% | 6.5%[38.3 µM] | -0.6
COC(=O)c1cc(N/C(N)=N/c2nc(C)cc(C)n2)cc(C(=O)OC)c1 | -7.4 | -1.8 | -2.2 | . | . | 0.8% | 35.1
O=c1c2ccccc2oc2nc3n(c(=O)c12)CCCS3 | -12.9 | -21.6 | -3.7 | 10.2 | -7.9% | -1.5%[38.3 µM] | ?
CC1=CC(C)[C@@H]2COC(c3ccc(O)cc3)[C@H]1C2C (stereo not given in full) | -6.6 | . | 3.0 | 6.4 | 7.4% | 4.1% | 1.7
